VDR inh = vitamin D3 receptor (human) inhibition; P11473; VDR-SRC2-3 peptide fluorescence polarization, 2 h; Potency, µM, for the others: max response, negative = inhibition, most hits filed as inhibitors; 0.93% of 400,000 active; AID 504847; active = well fitted inhibition curve with a large enough effect; inconclusive = small, poorly fitted or top-dose-only effect, or another doubt; inactive = no such curve, though single readings can be large or run the other way; also: series mostly up to about 120 µM
Target sequence (P11473 whole entry, looked up): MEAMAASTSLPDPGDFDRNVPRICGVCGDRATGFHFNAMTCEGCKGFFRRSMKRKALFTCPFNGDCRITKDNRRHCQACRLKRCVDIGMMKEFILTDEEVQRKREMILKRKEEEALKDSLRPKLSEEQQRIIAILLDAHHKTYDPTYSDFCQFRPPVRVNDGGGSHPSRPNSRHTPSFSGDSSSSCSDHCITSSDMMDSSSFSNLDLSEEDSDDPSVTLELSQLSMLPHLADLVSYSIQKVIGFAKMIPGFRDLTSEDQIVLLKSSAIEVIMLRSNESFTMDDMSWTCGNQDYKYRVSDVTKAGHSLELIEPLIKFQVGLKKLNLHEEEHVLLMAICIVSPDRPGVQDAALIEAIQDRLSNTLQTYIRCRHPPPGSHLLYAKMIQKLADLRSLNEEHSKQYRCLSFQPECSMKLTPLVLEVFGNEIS
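FP read-out; VDR + SRC2-3 coactivator peptide; 23 nl compound by pintool; 2 h RT incubation; reagents held at 4 deg C, protected from light.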
Active calls of the source: *; & = joins results of further samples; [ ] = dose if it differs, or a comment. % is scaled to controls: 0 for no effect and ±100 for the full control effect; potency is read from the fitted curve at half-maximal effect.

What do the screens show for `Cc1nnsc1C(=O)NNC(=O)c1cccc2ccccc12`?
VDR inh: 6%

How did CN(C(=O)CSc1nnc2[nH]c(=O)cc(-c3ccccc3)n12)c1ccccc1 do in these assays?
VDR inh: 16%

What do the screens show for `CCCC(=O)Nc1ccccc1NC(=O)c1ccc(OCC)c(OCC)c1`?
VDR inh: -3%

What do the screens show for `O=C(Nc1cccc(S(=O)(=O)N2CCCCC2)c1)C1CC(=O)N(c2ccc3c(c2)OCCO3)C1` (stereo not given)?
VDR inh: 32%[activator]

What do the screens show for `C#CCOCCOCCOCCNc1nc(N2CCN(C(=O)C(Cc3cc4ccccc4[nH]3)n3cc(C(N)Cc4ccc(O)cc4)nn3)CC2)nc(N2CCN(C(=O)C(CCC(=O)O)n3cc(C(N)C(C)CC)nn3)CC2)n1` (stereo not given)?
VDR inh: -9%

Results for O=C(COc1ccccc1F)Nc1ccc2nc(SCc3ccccc3)sc2c1 ?
VDR inh: 3%

What do the screens show for `COc1ccc(Oc2ncc3nc(-c4ccccc4)c(=O)n(CCC#N)c3n2)cc1`?
VDR inh: -1%

Results for O=C(N/N=C/C=C/c1ccccc1[N+](=O)[O-])c1cc(-c2cccnc2)nc2ccccc12 ?
VDR inh: 0%

How did CN1CCN(/N=C/c2ccc(OCc3ccccc3)cc2)CC1 do in these assays?
VDR inh: -19%

What do the screens show for `CCOC(=O)C1CCCN(C(=O)CCCn2nc(C)n3c(cc4sccc43)c2=O)C1` (stereo not given)?
VDR inh: 5%

Results for CC(C)c1ccccc1NC(=O)COC(=O)/C=C/c1cccc([N+](=O)[O-])c1 ?
VDR inh: inconclusive

What do the screens show for `COC(=O)Cc1ccc(NC(=S)NN2CCOCC2)cc1`?
VDR inh: 12%

How did O=S(=O)(Nc1ccc(-c2ccc3nncn3n2)cc1)c1cc(F)ccc1F do in these assays?
VDR inh: -13%

What do the screens show for `Cc1ccc(C(=O)NCc2ccc3c(c2)OCO3)cc1`?
VDR inh: -6%

How did CC(C)[C@H](NC(=O)C1CCN(S(=O)(=O)c2ccccc2)CC1)C(=O)NCc1ccncc1 do in these assays?
VDR inh: -12%

Results for Cc1csc2c(N3CCN(C(=O)NC(C)(C)C)CC3)ncnc12 ?
VDR inh: -13%

How did Cc1ccc(-n2ncc3c(=O)[nH]c(SCC(=O)N4CCC(C)CC4)nc32)cc1C do in these assays?
VDR inh: 5%

What do the screens show for `CC(=O)N1CCC[C@@]2(CCN(Cc3ccccc3)C2)C1`?
VDR inh: -8%

How did CC[C@]12c3[nH]c4ccc(Cl)cc4c3CCN1C(=O)[C@@H](CC(=O)NCc1ccc(OC)c(OC)c1)C[C@@H]2C(=O)N1CCN(C(=O)C2CC2)CC1 do in these assays?
VDR inh: -7%

What do the screens show for `COc1ccc(NC(=O)Cn2cc(C(=O)c3ccco3)c3ccccc32)cc1`?
VDR inh: 23%

How did O=C(COC(=O)C1(c2ccccc2F)CCCC1)Nc1ncc(C(F)(F)F)cc1Cl do in these assays?
VDR inh: 1%

How did Cc1ccc(C)c(N2CCN(C(=O)c3ccc4nsnc4c3)CC2)c1 do in these assays?
VDR inh: -2%

Results for CC1CCC(NC(=O)COC(=O)c2cccnc2Cl)CC1 (stereo not given) ?
VDR inh: 1%

Results for O=C(O)CC(NC(=O)C(c1ccccc1)c1ccccc1)c1cccc([N+](=O)[O-])c1 (stereo not given) ?
VDR inh: 11%

Results for O=C(CSc1nc2[nH]ncc2c(=O)n1-c1ccccc1Br)NCc1ccccc1Cl ?
VDR inh: -13%

How did COc1ccc(NC(=O)C2C3C=CC(C3)C2C(=O)NCc2ccccn2)c(OC)c1 (stereo not given) do in these assays?
VDR inh: inconclusive

How did CCOc1nc(C)cc(COC)c1C(N)=O do in these assays?
VDR inh: 4%

What do the screens show for `O=C(CN1C(=O)NC(c2ccccc2)(c2ccccc2)C1=O)Nc1ccc2[nH]c(=O)[nH]c2c1`?
VDR inh: 11%

What do the screens show for `COc1ccc(Cn2nc(C(=O)O)c3ccccc3c2=O)cc1F`?
VDR inh: -5%

What do the screens show for `COc1cccc(/C=C2\CC(C)Cc3c2nc2ccccc2c3C(=O)O)c1OC` (stereo not given)?
VDR inh: 2%

Results for COc1ccccc1CNC(=O)COC(=O)C12CC3CC(CC(O)(C3)C1)C2 ?
VDR inh: -9%

How did CSCCC(NC(=O)/C(=C\c1ccco1)NC(=O)c1ccco1)C(=O)O (stereo not given) do in these assays?
VDR inh: -9%

What do the screens show for `COc1ccc(NC(=O)C(NC(=O)OC(C)(C)C)C(C)OCc2ccccc2)cc1` (stereo not given)?
VDR inh: 0%

What do the screens show for `OCc1nc2ccccc2n1/N=C/c1cccs1`?
VDR inh: 12%

Results for Cc1nnc(NC(=O)c2cccc(S(=O)(=O)N(C)c3cccc(Cl)c3)c2)s1 ?
VDR inh: 19%

How did CCCOc1ccc(CCC(=O)N/N=C/c2ccc([N+](=O)[O-])o2)cc1 do in these assays?
VDR inh: -6%

How did O=C(O)C1C2CCC(C2)C1C(=O)NCCC1=CCCCC1 (stereo not given) do in these assays?
VDR inh: -22%

What do the screens show for `CC(=O)c1cc(C)c(OCc2cn(CC(=O)c3ccc(O)cc3)nn2)c(C)c1`?
VDR inh: 2%

How did O=C(c1cc2c(s1)-c1ccccc1OC2)N1CCN(c2ccccc2)CC1 do in these assays?
VDR inh: -7%&-14%

Results for COc1ccccc1N(CC(O)Cn1c(C)nc2ccccc21)S(=O)(=O)c1ccccc1 (stereo not given) ?
VDR inh: -4%

Results for COc1cccc(-n2ccnc2SCC(=O)Nc2nccs2)c1 ?
VDR inh: -1%

What do the screens show for `CCOC(=O)c1sc(NC(=O)CCN2C(=O)c3ccccc3C2=O)c(C(=O)OCC)c1C`?
VDR inh: 7%

Results for CCCN1CCC(=O)N([C@H](CSc2ccc(C)cc2)CC(C)C)CC1 ?
VDR inh: -2%

What do the screens show for `O=C(NCC1CCCO1)C(=O)N/N=C\c1ccc2c(c1)OCO2` (stereo not given)?
VDR inh: -7%

How did CSc1ccc(/C=C2/C(=N)N3N=C(CC(=O)N4CCCC4)SC3=NC2=O)cc1 do in these assays?
VDR inh: -19%

Results for CCCCOC(=O)n1c(=S)oc2cc(Cl)ccc21 ?
VDR inh: -20%

Results for CC(C)CN(C(=O)COC(=O)CSc1ccc(Br)cc1)C1CCS(=O)(=O)C1 (stereo not given) ?
VDR inh: -1%

Results for Cc1cc(NC(=O)C(C)C)ncc1NC(=O)CCc1ccccc1 ?
VDR inh: -14%

How did O=S(=O)(c1ccc2ncccc2c1)N1CCN(c2nc(-c3cccs3)nc3ccccc23)CC1 do in these assays?
VDR inh: -8%

How did O=C(Cn1cc[n+](CC(=O)c2ccccc2)c1)c1ccccc1 do in these assays?
VDR inh: -8%

Results for CCOc1cc(S(=O)(=O)N2CCCCC2)ccc1F ?
VDR inh: 0%

What do the screens show for `O=S(=O)(NCCC1=CCCCC1)c1ccccc1Cl`?
VDR inh: -3%

How did CN1CCN(C(=S)Nc2ccc([N+](=O)[O-])cc2)CC1 do in these assays?
VDR inh: 3%

How did COc1ccc(Cn2c(=O)c3cccnc3n(CC(=O)Nc3ccc(C)c(F)c3)c2=O)cc1 do in these assays?
VDR inh: -2%

How did O=[N+]([O-])c1cccc(COc2cccc(CO)c2)c1 do in these assays?
VDR inh: 17%

How did Cc1cccc(C)c1NC(=O)CSc1nnc(C2CCCCC2)o1 do in these assays?
VDR inh: -26%

What do the screens show for `N[C@@H](Cc1ccc(F)cc1)C(=O)O`?
VDR inh: 3%&-9%

How did COc1ccc(NS(=O)(=O)c2cccc(C(=O)NNC(=O)CNC(=O)c3ccccc3Cl)c2)cc1 do in these assays?
VDR inh: -16%

What do the screens show for `O=C(CSc1n[nH]c(=O)n1C1CC1)c1ccc2c(c1)OCCO2`?
VDR inh: 12%

How did CCCn1c(SCC(=O)Nc2cccc(Cl)c2Cl)n[nH]c1=O do in these assays?
VDR inh: -2%

Results for Cc1cccc(C(=O)NNC(=O)c2c(O)c3ccccc3n(C)c2=O)c1 ?
VDR inh: 1%

What do the screens show for `Cc1cc(=O)n2[nH]c(-c3cccc(Cl)c3)cc2n1`?
VDR inh: -5%

How did COc1ccc(S(=O)(=O)N(C)c2ccc(C(=O)NCCC(C)C)cc2)cc1 do in these assays?
VDR inh: -3%

Results for O=c1cc(CSc2nnc(-c3ccco3)o2)c2ccccc2[nH]1 ?
VDR inh: -2%

How did COC(=O)c1ccc(NC(=O)NC2CCCCC2)cc1 do in these assays?
VDR inh: 11%

What do the screens show for `O=c1[nH]c2ccccc2c2cn(-c3ccccc3)nc12`?
VDR inh: -5%

What do the screens show for `CCOC(=O)C(NCCc1ccc(F)cc1)(NC(=O)CC)C(F)(F)F` (stereo not given)?
VDR inh: 4%

What do the screens show for `Cc1c(Cl)cccc1N(CC(=O)N1CCCCCC1)S(C)(=O)=O`?
VDR inh: 11%

Results for COc1cccc(NC(=O)CN(C)CC(=O)Nc2cccc(C(F)(F)F)c2)c1 ?
VDR inh: -17%

How did Cc1nc2ccc(C(=O)Nc3ccccc3Cl)cc2s1 do in these assays?
VDR inh: -4%

What do the screens show for `CC(NC(=O)Cc1ccsc1)c1ccc(S(N)(=O)=O)cc1` (stereo not given)?
VDR inh: 8%

How did COc1ccc(OC)c(NC(=O)COC(=O)Cn2nnc(-c3ccccc3)n2)c1 do in these assays?
VDR inh: 10%

How did CC(CC(F)(F)F)N1CCC(n2nccc2NC(=O)CCCc2ccccc2)CC1 (stereo not given) do in these assays?
VDR inh: 5%

What do the screens show for `Cc1ccc(Br)c(NS(=O)(=O)c2cccc(C(=O)N3CCNC(=O)C3)c2)c1`?
VDR inh: -2%

What do the screens show for `O=C(N/N=C/c1cccs1)C(=O)Nc1cccc(Cl)c1`?
VDR inh: -5%

What do the screens show for `CCOC(=O)C(C)C1(O)c2ccccc2-c2ncccc21` (stereo not given)?
VDR inh: 1%

What do the screens show for `CN1CCN(C(=O)CSc2nc(-c3cccs3)ccc2C#N)CC1`?
VDR inh: -13%

Results for Cc1ccc(S(=O)(=O)N2CCN(CC(O)CN3CCOCC3)CC2)cc1 (stereo not given) ?
VDR inh: 20%

Results for O=C(CSc1ncnc2scc(-c3ccc(F)cc3)c12)c1ccc2c(c1)OCCO2 ?
VDR inh: -9%

How did Cc1cccnc1NC(=O)c1ccc(S(=O)(=O)N2CCCCC2)cc1 do in these assays?
VDR inh: -4%

How did O=C(Nc1ccccn1)c1ccc(S(=O)(=O)N2CCCCCC2)cc1 do in these assays?
VDR inh: 9%

What do the screens show for `COc1ccccc1N1C(=O)c2ccccc2NC1c1ccc(O)cc1` (stereo not given)?
VDR inh: 0%

How did Cc1cc2c(c(CO)c1CCO)C(=O)[C@@H](C)[C@@H]2O do in these assays?
VDR inh: -4%

How did CC(=O)Oc1c(C)c(C)c2c(c1C)CC[C@@](C)(CCC[C@H](C)CCC[C@H](C)CCCC(C)C)O2 do in these assays?
VDR inh: -11%&3%

Results for C[C@H](CCC(=O)NCC(=O)O)[C@H]1CC[C@H]2[C@@H]3[C@H](O)C[C@@H]4C[C@H](O)CC[C@]4(C)[C@H]3C[C@H](O)[C@]12C ?
VDR inh: 6%&-12%&-22%

What do the screens show for `Cc1cc2c(cc1C)NC(C)CC(=O)N2` (stereo not given)?
VDR inh: 18%

Results for COc1ccc(S(=O)(=O)NCC2CCCN(C(=O)CNC(C)=O)C2)cc1 (stereo not given) ?
VDR inh: -18%

How did O=C(CSc1nc2scc(-c3ccccc3)c2c(=O)[nH]1)N1CCOCC1 do in these assays?
VDR inh: -12%

How did COc1cc(CNCCSc2nnnn2C)cc(Cl)c1OCc1ccccc1 do in these assays?
VDR inh: 4%

How did CCOC(=O)CSc1nc2c(sc(=S)n2-c2ccc(CC)cc2)c(=O)[nH]1 do in these assays?
VDR inh: -10%

Results for CCCNC(=O)c1ccc2c(c1)N(Cc1cccc(C)c1)C(=O)c1ccccc1S2 ?
VDR inh: 6%

Results for C#CCOC(=O)CCCC(=O)NCCCCCCCC ?
VDR inh: -9%

How did O=c1[nH]cnc2c1nc(NCc1ccccc1)n2C1O[C@@H](CO)[C@H](O)[C@@H]1O (stereo not given in full) do in these assays?
VDR inh: -2%

How did O=C(Nc1ccccc1Br)c1cccc2ccccc12 do in these assays?
VDR inh: -2%

What do the screens show for `CCCc1[nH][nH]c(=O)c1C(c1ccc(Cl)cc1)C(C#N)C#N` (stereo not given)?
VDR inh: -41%

Results for Cc1ccc(N=Cc2c(O)n(-c3ccc4c(c3)OCO4)c(=O)c3ccccc23)cc1 ?
VDR inh: -7%

What do the screens show for `CC1(C)CC(=O)C=C(NC2CCCCC2)C1`?
VDR inh: -18%

Of the compounds above, 11 have a thiophene ring, fused or not.
What do the screens show for `CCOC(=O)C1CCCN(C(=O)CCCn2nc(C)n3c(cc4sccc43)c2=O)C1` (stereo not given)?
VDR inh: 5%

Results for Cc1csc2c(N3CCN(C(=O)NC(C)(C)C)CC3)ncnc12 ?
VDR inh: -13%

What do the screens show for `OCc1nc2ccccc2n1/N=C/c1cccs1`?
VDR inh: 12%

How did O=C(c1cc2c(s1)-c1ccccc1OC2)N1CCN(c2ccccc2)CC1 do in these assays?
VDR inh: -7%&-14%

What do the screens show for `CCOC(=O)c1sc(NC(=O)CCN2C(=O)c3ccccc3C2=O)c(C(=O)OCC)c1C`?
VDR inh: 7%

How did O=S(=O)(c1ccc2ncccc2c1)N1CCN(c2nc(-c3cccs3)nc3ccccc23)CC1 do in these assays?
VDR inh: -8%

What do the screens show for `CC(NC(=O)Cc1ccsc1)c1ccc(S(N)(=O)=O)cc1` (stereo not given)?
VDR inh: 8%

What do the screens show for `O=C(N/N=C/c1cccs1)C(=O)Nc1cccc(Cl)c1`?
VDR inh: -5%

What do the screens show for `CN1CCN(C(=O)CSc2nc(-c3cccs3)ccc2C#N)CC1`?
VDR inh: -13%

Results for O=C(CSc1ncnc2scc(-c3ccc(F)cc3)c12)c1ccc2c(c1)OCCO2 ?
VDR inh: -9%

How did O=C(CSc1nc2scc(-c3ccccc3)c2c(=O)[nH]1)N1CCOCC1 do in these assays?
VDR inh: -12%

Some of the compounds tested (hit frequency here may not be typical).
